From PubChem BioAssay
Methyltransferases = Primary Screen for Target Class Profiling of Small Molecule Inhibitors of Methyltransferases; purified enzyme, MTase-Glo SAH luminescence; active compounds read low; calls only at 40 µM; 25,000 compounds, 3.9% hits; AID 1745853, 2022; active = -50% or lower on at least one of six enzymes; inconclusive = the cases between; inactive = as a rule above -30% on all six;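 note: enzymes were COMT GAMT GNMT HNMT NNMT and PNMT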
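Each enzyme was assayed with SAM and its substrate. SAH formation detected by MTase-Glo luminescence; single-point 40 uM screen[…].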
Calls only; i = inactive; u = inconclusive; + = active, no number. % is set by controls: 0 for no effect and ±100 for the full control effect. Only part of the results is shown (hit frequency here may not be typical).

Molecule,Methyltransferases
CCCN1CCN(CCCNC(=O)c2cc3n(n2)CC(C)(C(=O)NC2CCCC2)N(CC)C3=O)CC1 (configuration not stated),i
CN(C)CC1(O)CCC2(CCN(C(=O)c3cccn3C)CC2)CC1,+
O=C(Cn1ccc2cc(S(=O)(=O)N3CCCC3)ccc21)NCc1cccc(F)c1,i
CC(C)CCNC(=O)C1(C)Cn2nc(C(=O)N3CCCC3)cc2C(=O)N1C (configuration not stated),i
CCOC(=O)C1CCCN(C(=O)C2CC(c3ccc(F)c(C)c3)CN(C(=O)NC(C)C)C2)C1 (configuration not stated),i
Cn1c2c(c3ccccc31)C(C(=O)NCc1ccc(F)cc1)N(c1ccc(F)cc1)C(=O)CS2 (configuration not stated),i
O=C1OC2(CCN(C(=O)c3ccco3)CC2)CN1CCOc1ccccc1,i
Cc1ccc(Cl)cc1N1C(=O)c2cc(C(C)(C)C)nn2CC1(C)C(=O)NC1CCCCC1 (configuration not stated),i
CS(=O)(=O)N1CCC2(CC1)CN(C(=O)c1ccc(N)nc1)Cc1ccccc1O2,i
C=C(C)[C@@H]1CC[C@]2(C)CC[C@]3(C)C(CCC4[C@@]5(C)CC[C@H](O)C(C)(C)C5CC[C@]43C)C12 (some centres not stated),i
CC1CCC(NC(=O)C2(C)Cn3c(cc4occc43)C(=O)N2CCCN2CCCCC2)CC1 (configuration not stated),i
CN(C)[C@@H]1CO[C@H](CNC(=O)c2ccncc2)[C@H]1O,i
O=C1CCC(CCC(=O)N2CCC(c3ccc(F)cc3)C2)(Cc2ccc3ccccc3c2)N1 (configuration not stated),i
CCN1CCN(C2(C(=O)NCCc3ccccc3)Cc3ccccc3C2)CC1,u
CC1=CC2/C=C(\C)CCC3OC(C)(C)OC3CCC(=O)C23C(=O)NC(CC(C)C)C3C1C (configuration not stated),i
CCC[C@@H]1CN(C(=O)CNS(=O)(=O)c2cccs2)C[C@H]1NC(C)=O,i
Cc1ccc(CN2C(=O)c3cc4ccccc4n3CC2(C)C(=O)NCc2ccccc2)cc1 (configuration not stated),i
Cc1ccc(CNC(=O)C2(C)Cn3nc(C(=O)NCCc4ccco4)cc3C(=O)N2C)cc1 (configuration not stated),i
COc1cccc([C@@H]2CCN(Cc3cn[nH]c3C(=O)O)C[C@H]2O)c1,i
Cc1ccccc1N1Cc2c(NC3CCCCCC3)ncnc2N(C)CC1=O,i
COc1ccccc1CNC(=O)C1(C)Cn2cnc(C(=O)NCc3cccc(F)c3)c2C(=O)N1C1CC1 (configuration not stated),i
Cc1ccc(C(=O)CSc2nnc3n(C)c(=O)c4ccc(C(=O)NC5CCCCC5)cc4n23)cc1,i
CC(=O)OCC(=O)[C@@]12O[C@@H]1C[C@H]1[C@@H]3CC=C4C[C@@H](O)CC[C@]4(C)[C@H]3CC[C@@]12C,i
Cc1ccc(C(=O)N2CC[C@@](C)(O)[C@@H](Cc3ccccc3)C2)cc1C,i
COc1ccc(NC(=O)Cn2nc3n(Cc4ccccc4)c(=O)c4ccccc4n3c2=O)cc1OC,i
Cc1ccc(C)c(Cn2nc3n(CCC(C)C)c(=O)c4ccc(C(=O)NC(C)C)cc4n3c2=O)c1,i
COc1cccc(Nc2nn3c(=O)c4ccc(C(=O)NCc5ccccn5)cc4nc3s2)c1,i
CCc1ccccc1NC(=O)c1ncn2c1C(=O)N(C1CC1)C(C)(C(=O)NC1CCCC1)C2 (configuration not stated),i
COCCC1(NC(=O)c2ccoc2)CCN(CC2CC2)CC1,i
COc1ccc(-c2cc3n(n2)CC(C)(C(=O)NCc2ccccc2OC)N(Cc2ccccc2OC)C3=O)cc1 (configuration not stated),i
CCc1ccc(NC(=O)Cn2c(=O)oc3cc(S(=O)(=O)N4CCCC4)ccc32)cc1,i
COC1CC(OC2CCC3(C)C(=CCC4C3C(OC(C)=O)C(OC(=O)/C=C/c3ccccc3)C3(C)C(C(C)O)CCC43O)C2)OC(C)C1OC1CC(OC)C(OC2OC(C)C(OC3OC(CO)C(O)C(O)C3O)C(OC)C2O)C(C)O1 (configuration not stated),i
C/C=C(/C=C(C)/C=C/C=C/C=C(\C)C(=O)C12OC1C(O)(CCO)NC2=O)C(=O)OC (configuration not stated),i
CC1CCC(NC(=O)C2(C)Cn3c(cc4occc43)C(=O)N2Cc2ccccc2Br)CC1 (configuration not stated),i
O=C(CN1CCCC1)N[C@H]1CC[C@H](Nc2nccc(-c3cccnc3)n2)C1,u
CCc1ccc(NC(=O)Cn2nc3n(Cc4ccccc4)c(=O)c4ccccc4n3c2=O)cc1,i
CCCn1c(=O)c2cc(F)ccc2n2c(SCC(=O)NCc3ccccc3Cl)nnc12,i
CC(=O)O[C@@H]1C2=C(O)C(=O)[C@](C)(OC(C)=O)C(=O)C2=CO[C@@]12O[C@@H](C)CC[C@H]2OC(C)=O,i
CC(C)c1ccc(S(=O)(=O)c2nnn3c2nc(NC2CCCC2)c2ccccc23)cc1,i
COc1ccccc1NC(=O)Nc1ccc2ccccc2c1,u
CCOC(=O)c1cc2n(n1)CC(C)(C(=O)NC1CCC(C)CC1)N(c1ccc(F)cc1C)C2=O (configuration not stated),i
CN1C[C@H](NC2CCC2)CCC[C@@H](C(=O)NC2CCOCC2)CC1=O,i
CO[C@@H]1CC[C@H](OC[C@]2(COC(=O)c3ccc(C)[nH]3)[C@H](OC(C)=O)CC[C@@]3(C)[C@@H]4CC=C(C)[C@@H](C5=C(O)C(=O)OC5O)[C@]4(C)CC[C@@H]32)O[C@H]1C (some centres not stated),i
CNCCC(c1cccs1)c1ccc(O)c2ccccc12 (configuration not stated),+
Cc1ccc(Cl)cc1N1C(=O)c2cc3sccc3n2CC1(C)C(=O)NC1CCCC(C)C1C (configuration not stated),i
O=C(Cn1ccc2cc(S(=O)(=O)N3CCCC3)ccc21)NCc1ccc(F)cc1,i
OC[C@@]1(O)CO[C@@H](OC[C@H]2O[C@@H](Oc3c[nH]c4ccccc34)[C@H](O)[C@@H](O)[C@@H]2O)[C@@H]1O,u
O=C(Cn1c(=O)oc2cc(S(=O)(=O)N3CCCC3)ccc21)N1CCN(c2ccccc2F)CC1,i
COc1ccc(CN2CCc3oc(C)c(C(=O)NC(C)Cn4ccc(C)n4)c3C2)cc1 (configuration not stated),i
CC(C)C1c2cccn2CCN1C(=O)NCCc1ccccc1 (configuration not stated),i

Given as labelled records: entries from further up.
Compound: CCc1ccc(NC(=O)Cn2nc3n(Cc4ccccc4)c(=O)c4ccccc4n3c2=O)cc1
- Methyltransferases: i

Compound: CCCn1c(=O)c2cc(F)ccc2n2c(SCC(=O)NCc3ccccc3Cl)nnc12
- Methyltransferases: i

Compound: CC(=O)O[C@@H]1C2=C(O)C(=O)[C@](C)(OC(C)=O)C(=O)C2=CO[C@@]12O[C@@H](C)CC[C@H]2OC(C)=O
- Methyltransferases: i

Continued:
Molecule,Methyltransferases
Cc1cnn(CCC(=O)NC2CCN(c3ccc(=O)n(C)n3)CC2)c1,i
CN1CCN(CCCN2C(=O)c3cc4occc4n3CC2(C)C(=O)NC2CCCCC2)CC1 (configuration not stated),i
O=C(NCc1cc(F)ccc1F)[C@@H]1CNC[C@H]1COc1cccnc1,i
CC(C)(C)C1CN(Cc2cccs2)C(=O)c2cccnc2O1 (configuration not stated),i
COc1ccc(CN2CCCC3(C2)C(=NC2CCCCC2)NC(=O)N3c2cccnc2)cc1 (configuration not stated),i
COc1cccc(CN2C(=O)c3cc(-c4ccccc4)nn3CC2(C)C(=O)NCc2ccccc2)c1 (configuration not stated),i
CC1(C)C(=O)N(CC2CCOCC2)[C@H]2CN(Cc3cccs3)C[C@@H]2[S+]1(=O)[O-],i
COCCCNc1nc2c(-c3ccc(C)cc3)nnn2c2ccccc12,i
CCn1ncnc1C1CC(=O)Nc2cc(OC)c(NS(C)(=O)=O)cc21 (configuration not stated),i
CC(=O)Nc1c2n(c3ccccc13)CC(C)(C(=O)NC1CCCCC1)N(C1CCCCC1)C2=O (configuration not stated),i
CCNc1ncc(C(=O)NC2CC(c3nnc(CO)n3CC)C2)cn1 (configuration not stated),i
O=C(CCCc1nnc2n3nc(-c4ccccc4)nc3c3ccccc3n12)NCc1ccc2c(c1)OCO2,i
CN1C(=O)c2cc(C(=O)NCCCN3CCc4ccccc4C3)nn2CC1(C)C(=O)NCc1ccccc1 (configuration not stated),i
CN1C(=O)c2cc(C(=O)NCCN3CCCC3)nn2CC1(C)C(=O)NC1CCCCC1 (configuration not stated),i
COc1ncccc1-c1nccn2c(C3CN(Cc4ccccc4O)C3)ncc12,+
CCc1ccc(N2C(=O)c3cc4sc(CC)cc4n3CC2(C)C(=O)NC2CCC(C)CC2)cc1 (configuration not stated),i
CN1CCN(C(=O)c2ccc3nnc(C4CCCC4)n3c2)CC1,i
CC(=O)Nc1ccn(C2COC(COC(=O)c3ccccc3)O2)c(=O)n1 (configuration not stated),i
CN1C(=O)c2cc(C(=O)NCCCc3ccccc3)nn2CC1(C)C(=O)NCc1ccccc1 (configuration not stated),i
COc1ccc(CNC(=O)[C@H]2O[C@H](CCN(C)CCc3ccccc3)CC[C@@H]2O)cc1,i
Cc1nc(CCNc2cc(C3CC(O)C3)nc(N)n2)nc2c1CCC2 (configuration not stated),i
CCc1noc(-c2cn(C3CCN(C(=O)COc4ccccc4)C3)nn2)n1 (configuration not stated),i
O=C(NCCc1ccc(Cl)cc1)c1nc(-c2ccc(Cl)cc2Cl)c2ccccn12,i
CCCCS(=O)(=O)N1CCC(F)(c2nc(-c3ccccc3)no2)CC1,i
COc1ccccc1N1CCN(C(=O)Cn2c(=O)n3nc(-c4ccccc4)nc3c3ccccc32)CC1,i

Compounds above with a Cl atom (4):
Molecule,Methyltransferases
Cc1ccc(Cl)cc1N1C(=O)c2cc(C(C)(C)C)nn2CC1(C)C(=O)NC1CCCCC1 (configuration not stated),i
CCCn1c(=O)c2cc(F)ccc2n2c(SCC(=O)NCc3ccccc3Cl)nnc12,i
Cc1ccc(Cl)cc1N1C(=O)c2cc3sccc3n2CC1(C)C(=O)NC1CCCC(C)C1C (configuration not stated),i
O=C(NCCc1ccc(Cl)cc1)c1nc(-c2ccc(Cl)cc2Cl)c2ccccn12,i

Next section:
Molecule,Methyltransferases
COc1ccc(-c2n[nH]n3c2nc(=O)c2ccc(C(=O)NCc4ccccc4F)cc23)cc1,i
CSc1ccc(CCNC(=O)Cn2ccc3cc(S(=O)(=O)N4CCCCC4)ccc32)cc1,i
Cc1ccc(N2C(=O)c3cc(C(C)(C)C)nn3CC2(C)C(=O)NCc2ccccc2)c(C)c1 (configuration not stated),i
COc1ccc(C(=O)N2CCCC2c2nc(CCOc3cccc(C)c3)no2)cn1 (configuration not stated),i
O=C(CCc1nnc2n(Cc3ccc(F)cc3)c(=O)c3ccccc3n12)NC1CC1,i
OC1COC(OCC2OC(OCCc3ccccc3)C(O)C(O)C2O)C(O)C1O (configuration not stated),+
COc1ccccc1CN1C(=O)c2cc3sccc3n2CC1(C)C(=O)NC1CCCCCC1 (configuration not stated),i
CN1C(=O)c2cc(C(=O)NCCc3ccccc3Cl)nn2CC1(C)C(=O)NCc1ccccc1 (configuration not stated),i
Cc1ccsc1CN1CCCOCCNC(=O)[C@@H]2CCCC[C@@H]21,i
CCc1cccc(NS(=O)(=O)c2cc3c(cc2Cl)n(C)c(=O)n3C)c1,i
O=c1c2ccccc2n2c(=O)n(Cc3cccc(Cl)c3)nc2n1CCc1ccccc1,i
Cc1ccccc1C(=O)c1ccc(Nc2ccc(Br)cc2N)cc1Cl,u
Cc1cccc(NC(=O)CSc2nnc3n(CC(C)C)c(=O)c4ccc(C(=O)NCC(C)C)cc4n23)c1,i
O=C(NCCC1CCN(S(=O)(=O)c2ccccc2)CC1)NCc1ccco1,i
COc1cc2c(cc1O)[C@H](c1ccc(O[C@@H]3O[C@H](CO)[C@@H](O)[C@H](O)[C@H]3O)c(OC)c1)[C@@H](CO)[C@](O)(CO)C2,i
CCN=C1N[C@@H]2[C@@H](O)[C@H](O)[C@@H](CO)O[C@@H]2S1,i
Cc1ccc(Cn2c(=O)c3ccccc3n3c(=O)n(CC(=O)c4cc(C)ccc4C)nc23)cc1,i
CC1(C(=O)NC2CCCC2)Cn2c(cc3ccccc32)C(=O)N1Cc1cccnc1 (configuration not stated),i
CC1CCCCN1C(=O)Cn1c(=O)oc2cc(S(=O)(=O)N3CCCC3)ccc21 (configuration not stated),i
Cc1cc(F)ccc1NS(=O)(=O)c1cc2c(cc1Cl)n(C)c(=O)n2C,i
CC(C)OCCCNC(=O)C1c2c(n(C)c3ccccc23)SCC(=O)N1CCc1ccsc1 (configuration not stated),i
COCCCNC(=O)C1(C)Cn2nc(-c3ccccc3)cc2C(=O)N1Cc1ccc(Cl)cc1 (configuration not stated),i
CCc1nnc(CN(CC)C(=O)c2cc(S(N)(=O)=O)ccc2F)o1,i
C=CC(C)(O)CC/C=C(\C)C(=O)OCC1OC(OC2CCC3(C)C(CCC4(C)C3CC=C3C5CC(C)(C)C(O)CC5(C(=O)O)CCC34C)C2(C)C)C(O)C(OC2OC(CO)C(O)C(OC3OC(CO)C(O)C(OC4OC(COC5OC(CO)C(O)C(O)C5O)C(O)C(O)C4O)C3O)C2O)C1O (configuration not stated),i
CCC1c2ccc(C)n2CCN1C(=O)Nc1ccc(C)cc1C (configuration not stated),i
Cc1cccc(NC(=O)CSc2nnc3n(CC(C)C)c(=O)c4ccc(C(=O)NC(C)C)cc4n23)c1,i
